AF4-AF9 inh: inhibitors of human MLL-AF4/AF9 interaction | hit rate 0.47% among 350,000 | inhibition, % at 10 µM | AlphaScreen, biotin-AF4 peptide binding to FLAG-AF9;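 active = every replicate reaching a set inhibition limit, whatever the replicate mean, cut at about 25% in these data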;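 also: 0% = plate neutral control median and 100% = total signal loss; the record names both 10 and 1 µM as test concentration; the first replicate is given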
Target sequence (P42568 whole entry, looked up): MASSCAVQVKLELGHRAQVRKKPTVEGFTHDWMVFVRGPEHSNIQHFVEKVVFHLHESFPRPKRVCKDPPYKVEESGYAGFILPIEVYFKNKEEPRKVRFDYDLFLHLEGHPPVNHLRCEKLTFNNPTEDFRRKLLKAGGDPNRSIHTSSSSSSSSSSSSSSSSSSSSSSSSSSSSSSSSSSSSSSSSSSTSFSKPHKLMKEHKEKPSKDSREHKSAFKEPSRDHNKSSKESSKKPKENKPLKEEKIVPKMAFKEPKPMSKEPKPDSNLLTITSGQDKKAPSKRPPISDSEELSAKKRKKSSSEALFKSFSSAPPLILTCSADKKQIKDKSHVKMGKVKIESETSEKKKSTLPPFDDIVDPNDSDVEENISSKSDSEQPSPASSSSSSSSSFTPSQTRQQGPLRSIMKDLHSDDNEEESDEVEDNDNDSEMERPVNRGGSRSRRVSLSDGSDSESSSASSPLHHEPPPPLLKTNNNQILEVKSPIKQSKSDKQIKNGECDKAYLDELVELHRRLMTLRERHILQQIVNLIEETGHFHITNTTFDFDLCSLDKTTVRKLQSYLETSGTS
The depositor's hits bear a star. An excerpt; rates above refer to the full screens.

SMILES | AF4-AF9 inh
CC(C)C#Cc1ccc2c(c1)O[C@@H](CN(C)CC1CCCC1)[C@H](C)CN([C@H](C)CO)S2(=O)=O | 6.4
Cc1noc(C)c1NC(=O)Nc1cccc2c1O[C@H](CN(C)S(=O)(=O)c1ccc(Cl)cc1)[C@@H](C)CN([C@H](C)CO)C2=O | -0.9
O=c1cc(CN2CCN(c3ccc(Cl)c(Cl)c3)CC2)c2ccccc2o1 | -1.0
CN1CCN(C(=O)C[C@@H]2C[C@H]3c4cc(NC(=O)Cc5ccncc5)ccc4O[C@H]3[C@@H](CO)O2)CC1 | -0.8
Cc1cc(C)n(CCNC(=O)[C@H]2O[C@@H](n3cnc4c(N)ncnc43)[C@H](O)[C@@H]2O)n1 | -3.5
CO[C@@H]1CN(C)C(=O)c2cc(NS(=O)(=O)c3ccccc3)ccc2OC[C@@H](C)N(Cc2cccnc2)C[C@@H]1C | -0.6
CC(=O)Nc1ccc(NC(=O)C2(C)Cc3c(-c4cccc(C(F)(F)F)c4)ccnc3O2)cc1 (stereo not given) | -3.2
COc1ccccc1-c1ccc([C@@H]2[C@@H](CO)N3CCCCN(C(=O)c4ccncc4)C[C@@H]23)cc1 | -4.7
COc1ccc(NC(=O)Nc2ccc3c(c2)C(=O)N([C@@H](C)CO)C[C@@H](C)[C@@H](CN(C)C(=O)Nc2c(C)noc2C)OCCCC[C@@H](C)O3)cc1 | 1.4
CO[C@H]1CN(C)C(=O)c2ccc(NC(=O)c3ccccc3F)cc2OC[C@H](C)N(C(C)=O)C[C@@H]1C | -0.6
CNC[C@@H]1OCCCC[C@@H](C)Oc2ccc(NS(=O)(=O)c3cn(C)cn3)cc2C(=O)N([C@H](C)CO)C[C@@H]1C | -19.1
COC(=O)c1cc2c(c3c4cc(OC)ccc4n(S(=O)(=O)c4ccccc4)c13)C(=O)N(C)C2 | -0.3
CN(Cc1ccccc1)c1nccn2ccnc12 | 3.4
C[C@@H]1CN([C@H](C)CO)C(=O)c2cc(NC(=O)Nc3cccc4ccccc34)ccc2O[C@@H]1CN(C)Cc1ccncc1 | -0.1
CN1c2ccc(-c3ccc(C#N)cc3)cc2[C@@H]2[C@@H](CCN2C(=O)Nc2ccccc2F)[C@@H]1CO | -3.7
COc1cc(NC(=O)C2(C)CCCN(C(C)C)C2)cc(OC)c1OC (stereo not given) | -4.2
C[C@@H]1CCCCO[C@H](CN(C)S(=O)(=O)c2cccs2)[C@H](C)CN([C@@H](C)CO)C(=O)c2cc(NC(=O)C3CCCCC3)ccc2O1 | -0.5
Cc1noc(C)c1NC(=O)N(C)C[C@H]1Oc2ccc(NS(=O)(=O)c3ccc(Cl)cc3)cc2C(=O)N([C@H](C)CO)C[C@@H]1C | -0.6
O=C(NC[C@H]1N[C@H](CO)[C@@H]1c1ccc(-c2ccccc2)cc1)c1cccc(F)c1 | -8.8
Cc1cccc(NC(=O)CSc2nc3sc(C)cc3c(=O)n2C)c1 | -34.8
Cc1ccc(S(=O)(=O)Nc2ccc3c(c2)C(=O)N([C@H](C)CO)C[C@@H](C)[C@H](CN(C)S(C)(=O)=O)OCCCC[C@@H](C)O3)cc1 | 4.0
C[C@@H]1CN([C@H](C)CO)C(=O)c2ccccc2-c2ccccc2CO[C@@H]1CN(C)S(=O)(=O)c1ccc([N+](=O)[O-])cc1 | 8.8
O=C(N[C@H]1C=C[C@@H](CC(=O)N2CCOCC2)O[C@@H]1CO)c1cccc(F)c1 | -0.9
CN(C)C(=O)c1ccc(-c2ccc3c(c2)[C@@H]2[C@@H](CCN2C(=O)C2CCCCC2)[C@H](CO)N3C)cc1 | 9.9
COc1ccc(Cc2c(-c3ccc(OC)c(OC)c3)nc3ccc(C)cn23)c(C)c1 | 2.8
CCC(=O)N[C@@H]1CC[C@H](CC(=O)NCC2CCCCC2)O[C@@H]1CO | -0.7
COc1ccc(CN(C)C[C@H]2Oc3ccc(NC(=O)C4CC4)cc3C(=O)N([C@H](C)CO)C[C@H]2C)cc1 | -2.9
Cc1noc(C)c1NC(=O)Nc1cccc2c1O[C@@H](CN(C)S(=O)(=O)c1cccs1)[C@@H](C)CN([C@@H](C)CO)C2=O | -1.6
COc1ccc(CC(=O)Nc2nc(OCCN3CCCC3=O)cnc2-c2cccc(C(F)(F)F)c2)cc1 | -3.4
Cc1noc(C)c1S(=O)(=O)Nc1ccc2c(c1)C(=O)N([C@@H](C)CO)C[C@H](C)[C@H](CN(C)S(=O)(=O)c1ccc(F)cc1)OCCCC[C@@H](C)O2 | 1.6
C[C@H](CO)N1C[C@H](C)[C@H](CN(C)S(=O)(=O)c2cn(C)cn2)Oc2ccc(NC(=O)Cc3ccccc3)cc2C1=O | -2.4
C[C@@H]1CCCCO[C@@H](CN(C)C(=O)c2ccccc2)[C@H](C)CN([C@@H](C)CO)C(=O)c2cc(NS(=O)(=O)c3ccc(F)cc3)ccc2O1 | 0.2
CN1C(=O)c2cc(NC(=O)c3cccc(C#N)c3)ccc2OC[C@H]2O[C@@H](CC(=O)NCCN3CCCC3)CC[C@@H]21 | 3.2
Cc1ccccc1-c1ccc([C@H]2[C@@H](CO)N3C(=O)CN(C(=O)Nc4cccc(F)c4)C[C@@H]23)cc1 | -6.2
OC[C@H]1[C@H](c2ccc(-c3ccc(F)cc3)cc2)[C@@H]2CN(Cc3ccncc3)CCCCN12 | 2.8
CCCn1c(N)c(N(CCOC)C(=O)CSc2cc(C)c3ccccc3n2)c(=O)[nH]c1=O | 0.7
C[C@H](CO)N1C[C@H](C)[C@H](CN(C)C(=O)Nc2ccccc2C(F)(F)F)OCc2ccccc2-c2ccccc2C1=O | -0.7
CNC[C@@H]1Oc2c(NC(=O)Nc3ccc4c(c3)OCO4)cccc2C(=O)N([C@H](C)CO)C[C@H]1C | 3.3
O=C(NCc1ccccc1)c1cc(C2CCCN(C(=O)CCc3ccccc3)C2)on1 (stereo not given) | -1.3
O=C(Nc1ccc2c(c1)OCO2)N[C@H]1CC[C@@H](CCNC(=O)C2CCCC2)O[C@H]1CO | -0.6
CCS(=O)(=O)N1CCCCN2[C@H](C1)[C@H](c1ccc(-c3ccc(C#N)cc3)cc1)[C@@H]2CO | 12.2
COc1ccc(S(=O)(=O)Nc2ccc3c(c2)CC(=O)N([C@@H](C)CO)C[C@@H](C)[C@@H](CN(C)S(=O)(=O)c2ccc(Cl)cc2)O3)cc1 | -0.6
C[C@@H]1CN([C@@H](C)CO)C(=O)c2cc(NC(=O)Cc3cn(C)c4ccccc34)ccc2O[C@@H]1CN(C)C(=O)Nc1ccc(C(F)(F)F)cc1 | 0.7
CNC[C@@H]1OCCCC[C@@H](C)Oc2ccc(NC(=O)Nc3c(C)noc3C)cc2C(=O)N([C@H](C)CO)C[C@H]1C | -3.0
CO[C@@H]1CN(C)C(=O)c2ccc(NS(C)(=O)=O)cc2OC[C@@H](C)N(CC2CC2)C[C@H]1C | -0.4
CC(C)CC#Cc1cnc2c(c1)C(=O)N([C@@H](C)CO)C[C@H](C)[C@H](CN(C)C(=O)c1cnccn1)O2 | -7.1
Cc1cc2nc3c(=O)[nH]c(=O)nc-3n(C[C@H](O)[C@H](O)[C@H](O)CO)c2cc1C | -14.2
C[C@H]1CNC(=O)c2c(C(=O)NC3CCN(C(=O)OC(C)(C)C)CC3)ncn21 | -13.5
CN(C)C(=O)c1ccc(-c2ccc([C@@H]3[C@H](C#N)N(S(C)(=O)=O)[C@H]3CO)cc2)cc1 | -0.5
CC(C)(O)C#Cc1ccc([C@H]2[C@H]3CN(C(=O)c4cccc(F)c4)CCCCN3[C@H]2CO)cc1 | -2.7
C[C@@H](O)C#Cc1ccc([C@@H]2[C@H]3CN(CC4CCOCC4)CCCCN3[C@H]2CO)cc1 | 3.4
C[C@H]1CN([C@@H](C)CO)C(=O)c2cc(NS(=O)(=O)c3cccs3)ccc2O[C@H]1CN(C)C(=O)NC1CCCCC1 | -1.5
COc1ccccc1-c1cnc2c(c1)C(=O)N([C@@H](C)CO)C[C@@H](C)[C@H](CN(C)Cc1cncnc1)O2 | -6.8
CN(C[C@H]1[C@@H](c2ccccc2)[C@@H](CO)N1C(=O)C1CCC1)C(=O)c1ccncc1 | -4.2
CCC(=O)N(C)C[C@@H]1Oc2cc(C#C[C@@H](C)O)ccc2S(=O)(=O)N([C@H](C)CO)C[C@H]1C | -3.2
C[C@H]1CN([C@@H](C)CO)C(=O)c2cc(NS(=O)(=O)c3ccc(Cl)cc3)ccc2O[C@H]1CN(C)Cc1ccccc1 | 2.1
CNC[C@H]1OCCCC[C@@H](C)Oc2ccc(NC(=O)Nc3ccc4c(c3)OCO4)cc2C(=O)N([C@H](C)CO)C[C@H]1C | 8.7
O=C(Cc1ccccn1)NCC[C@@H]1CC[C@H](NS(=O)(=O)c2ccc(F)cc2)[C@H](CO)O1 | -0.6
CCC(=O)N1[C@@H](CO)[C@@H](c2ccccc2)[C@@H]1CN(CC)C(=O)c1cccc(F)c1 | -3.2
CC(=O)Nc1ccc2c(c1)C(=O)N(C)[C@H]1CC[C@H](CC(=O)NCC3CC3)O[C@@H]1CO2 | -1.9
(list continues)
SMILES | AF4-AF9 inh
CCc1ccc(CN2CCC(n3nccc3NC(=O)c3ccccc3OC)CC2)o1 | 0.6
CC(C)C#Cc1cnc2c(c1)C(=O)N([C@@H](C)CO)C[C@H](C)[C@@H](CN(C)Cc1ccccc1)O2 | 4.1
CCN1C[C@@H]2[C@@H]3C(=O)N(C)C(=O)[C@@H]3[C@](C)(C1=O)N2C(=O)c1ccccc1 | 1.9
C[C@H](NC(=O)C[C@@H]1CC[C@@H](NC(=O)C2CCC2)[C@@H](CO)O1)c1ccccc1 | -0.1
Cc1ccccc1-c1ccc([C@@H]2[C@@H](CO)N3CCCCN(S(C)(=O)=O)C[C@@H]23)cc1 | -2.6
COc1ccc(CN(C)C[C@H]2Oc3c(NC(=O)C4CC4)cccc3C(=O)N([C@@H](C)CO)C[C@H]2C)cc1 | -4.0
C[C@@H](NC(=O)C[C@@H]1CC[C@H](NC(=O)Nc2ccc3c(c2)OCO3)[C@H](CO)O1)c1ccccc1 | -1.0
Fc1ccc(-c2nc3c4ccccc4ccn3c2Cc2cccc(F)c2)cc1 | -0.8
C/C=C/c1ccc2c(c1)O[C@@H](CN(C)S(=O)(=O)c1ccccc1OC)[C@@H](C)CN([C@@H](C)CO)S2(=O)=O | -4.2
C[C@@H]1CN([C@@H](C)CO)C(=O)CCCn2cc(nn2)CO[C@@H]1CN(C)Cc1ccccc1C(=O)O | -1.5
Cc1ccc(S(=O)(=O)N[C@H]2C=C[C@H](CC(=O)NCc3ccncn3)O[C@@H]2CO)cc1 | 2.1
C[C@H]1CN([C@@H](C)CO)C(=O)Cc2cc(NC(=O)Cc3ccccc3)ccc2O[C@H]1CN(C)C | -1.0
CCC(=O)N(C)C[C@H]1Oc2cc(C#CC3CCCCC3)ccc2S(=O)(=O)N([C@H](C)CO)C[C@H]1C | 6.5
C[C@H](O)C#Cc1cnc2c(c1)C(=O)N([C@@H](C)CO)C[C@H](C)[C@@H](CN(C)CC1CCOCC1)O2 | -3.3
C[C@H](NC(=O)[C@H]1[C@H](CO)[C@H]2Cn3c(cccc3=O)[C@@H]1N2Cc1cccnc1)c1ccccc1 | -1.3

6 compounds picked at random from the list so far, as already listed:
SMILES | AF4-AF9 inh
C[C@H](NC(=O)C[C@@H]1CC[C@@H](NC(=O)C2CCC2)[C@@H](CO)O1)c1ccccc1 | -0.1
C/C=C/c1ccc2c(c1)O[C@@H](CN(C)S(=O)(=O)c1ccccc1OC)[C@@H](C)CN([C@@H](C)CO)S2(=O)=O | -4.2
CCC(=O)N(C)C[C@H]1Oc2cc(C#CC3CCCCC3)ccc2S(=O)(=O)N([C@H](C)CO)C[C@H]1C | 6.5
Cc1ccccc1-c1ccc([C@@H]2[C@@H](CO)N3CCCCN(S(C)(=O)=O)C[C@@H]23)cc1 | -2.6
CC(C)C#Cc1cnc2c(c1)C(=O)N([C@@H](C)CO)C[C@H](C)[C@@H](CN(C)Cc1ccccc1)O2 | 4.1
C[C@@H](NC(=O)C[C@@H]1CC[C@H](NC(=O)Nc2ccc3c(c2)OCO3)[C@H](CO)O1)c1ccccc1 | -1.0

2 of the compounds above, with values ahead of the structure.
AF4-AF9 inh	structure
-0.6	Cc1noc(C)c1NC(=O)N(C)C[C@H]1Oc2ccc(NS(=O)(=O)c3ccc(Cl)cc3)cc2C(=O)N([C@H](C)CO)C[C@@H]1C
-8.8	O=C(NC[C@H]1N[C@H](CO)[C@@H]1c1ccc(-c2ccccc2)cc1)c1cccc(F)c1

Further entries follow:
SMILES | AF4-AF9 inh
COc1cccc(C#Cc2ccc([C@H]3[C@H]4CN(C(=O)c5ccncc5)CC(=O)N4[C@H]3CO)cc2)c1 | -1.9
C[C@H]1CN([C@@H](C)CO)C(=O)c2cc(NC(=O)CCCN(C)C)ccc2O[C@H]1CN(C)C(=O)Nc1ccc2c(c1)OCO2 | -0.6
COc1ccccc1NC(=O)N1CC(=O)N2[C@H](CO)[C@H](c3ccc(C#Cc4ccccc4)cc3)[C@@H]2C1 | -0.5
C[C@H]1CCCCO[C@H](CN(C)S(=O)(=O)c2cn(C)cn2)[C@@H](C)CN([C@@H](C)CO)C(=O)c2cc(NS(=O)(=O)c3cn(C)cn3)ccc2O1 | -11.3
CN(C)CC(=O)Nc1ccc2c(c1)[C@@H]1C[C@H](CC(=O)N3CCN(C)CC3)O[C@@H](CO)[C@@H]1O2 | 1.9
COc1ccccc1-c1cn(CC[C@H]2CC[C@@H](NC(=O)CCN3CCCCC3)[C@H](CO)O2)nn1 | 3.0
C[C@@H]1CN([C@H](C)CO)C(=O)c2cc(NC(=O)CCC(F)(F)F)ccc2O[C@@H]1CN(C)Cc1ccncc1 | -4.0
CCOC(=O)[C@]12CCCC=C1N(Cc1ccc3c(c1)OCO3)C(=O)[C@H](CC(=O)NCCCCc1ccccc1)C2 | 1.4
C[C@H](CO)N1C[C@H](C)[C@@H](CN(C)S(=O)(=O)c2cn(C)cn2)Oc2ccc(NC(=O)Cc3cn(C)c4ccccc34)cc2CC1=O | 0.7
CCCN(C)C[C@@H]1OCCCC[C@@H](C)Oc2ccc(NC(=O)Nc3ccc(C(F)(F)F)cc3)cc2C(=O)N([C@H](C)CO)C[C@H]1C | 1.5

High-throughput results as filed in PubChem BioAssay.
